# H5N1 antiviral – MDCK cell protection from H5N1 avian flu | cytopathic effect, luminescence, 72 h; stronger effect = higher value; no value below 0 was filed and about half of the inactive calls have no number; reference of the scale not given here | inhibition, % at 50 µM | 96,000 tested, 0.07% active; in the data active means inhibition above about 25%
# Active calls of the source: *; i = inactive. Some of the compounds tested. The share of hits here may be higher or lower than overall.
# Start of the data: the first 2 records (preview)
Compound | H5N1 antiviral
CCOC(=O)c1[nH]c2ccc(OC)cc2c1NC(=O)c1cccc(OC)c1 | 1.7
CN(Cc1ccccc1)c1ncnc2c1cnn2-c1ccccc1 | i

# The whole of this part, repeating the preview:
Compound | H5N1 antiviral
CCOC(=O)c1[nH]c2ccc(OC)cc2c1NC(=O)c1cccc(OC)c1 | 1.7
CN(Cc1ccccc1)c1ncnc2c1cnn2-c1ccccc1 | i
Cc1ccnc(SCC(=O)Nc2c(C)n(C)n(-c3ccccc3)c2=O)n1 | i
CC(=NCc1ccco1)C1=C(O)c2ccccc2C1=O | 1.0
Clc1ccc(OCCSc2nnnn2C2CCCCC2)cc1 | 0.5
CC(=O)C1=C(O)C(=O)N(CC#N)C1c1cccs1 (stereo unspecified) | 0.1
Cn1c(SCC(=O)c2ccccc2)nnc1-c1cccnc1 | 0.3
CNc1cccccc1=S | 0.5
Cc1cc(C)c(C(=O)CSc2nnc(-c3cccnc3)n2C)c(C)c1 | i
CCN1C(=O)CC(N2CCC(C(=O)OC)CC2)C1=O (stereo unspecified) | 0.8
CCN(CC)S(=O)(=O)c1cc(NC(=O)COC(=O)CCc2nc3ccccc3s2)ccc1C | i
Nc1nonc1C(=O)NCCN=Cc1ccccc1O | i
COc1ccc(OCCOCCN2CCOCC2)cc1 | i
c1cncc(-c2nnc3n2C2(CCCCC2)Cc2ccccc2-3)c1 | 0.9
Clc1ccc2[nH]c3c(c2c1)CCc1cn[nH]c1-3 | i
CCOC(=O)C1=C(C)N=c2s/c(=C\c3ccncc3)c(=O)n2C1c1ccc2c(c1)OCO2 (stereo unspecified) | i
CCOC(=O)C(C)N1N=C(/C=C/c2ccc(OC)cc2)CCC1=O (stereo unspecified) | 0.4
COc1cccc(N(C(=O)Cn2nnc(-c3ccc(C)cc3)n2)C(C(=O)NC(C)(C)C)c2c[nH]c3ccccc23)c1 (stereo unspecified) | i
c1ccc(-c2n[nH]c3c2CCC3)cc1 | 0.6
CCN(CC)S(=O)(=O)c1ccc2oc(C(=O)N3CCOCC3)c(C)c2c1 | 2.5

# New compounds follow
Compound | H5N1 antiviral
COc1ccc(S(=O)(=O)N2CCC(C(=O)NCc3ccco3)CC2)cc1 | 0.8
O=C(CCCn1c(=S)[nH]c2ccccc2c1=O)N1CCN(c2cccc(Cl)c2)CC1 | 0.6
O=C(CN1CCOCC1)Nc1ccc(C2CCCCC2)cc1 | i
Cc1cc2c(cc1C)[n+](C)cn2CC(O)COCc1ccccc1 (stereo unspecified) | 0.1
Cc1cc(C)c(S(=O)(=O)NCc2cn3c(C)csc3n2)c(C)c1 | 1.0
CCN1C(=O)/C(=C/c2c(C)nn(C)c2C)SC1=S | i
Cc1nc(N2CCN(Cc3ccccc3)CC2)nc2c1C(=O)CCC2 | 1.5
Cc1ccc(OCCN2C(=O)CSC2=O)cc1 | i
C=CCOc1ccc(C(=O)N(Cc2ccc(N(C)C)cc2)C2CCS(=O)(=O)C2)cc1 (stereo unspecified) | 0.1
CCCc1nc2ccccc2c(C(=O)O)c1CC | i
NC(=O)c1ccccc1NS(=O)(=O)Cc1ccccc1 | 0.6
CS(=O)(=O)Nc1ccccc1C(=O)N1CCOCC1 | i
CCc1c(C)nc2[nH]nc(-c3ccccc3)n2c1=O | 40*
O=C(COC(=O)C12CC3CC(CC(O)(C3)C1)C2)NC(=O)NCc1ccco1 | 1.5
COc1ccc(Nc2ncc(C(=O)N3CCC(C(N)=O)CC3)c3ccccc23)cc1 | 0.2
Cc1ccc(C2=[N+]([O-])C3(CCCCC/C3=N\O)N(O)C2(C)C)o1 (stereo unspecified) | i
O=C(CSc1ncccc1-c1nc2ccccc2[nH]1)NC1CC1 | i
O=C1CC(c2ccccc2Cl)C2=C(COC2=O)N1 (stereo unspecified) | i
Cn1ccnc1SCC(=O)Nc1cccc2ccccc12 | 1.0
O=C(C1CCC(=O)N1Cc1ccccc1Cl)N1CCN(c2cccc(Cl)c2)CC1 (stereo unspecified) | 2.1

# More compounds
Compound | H5N1 antiviral
CC(C(=O)NCc1ccccc1)N1C(=O)CN(C)C(=O)c2ccccc21 (stereo unspecified) | 0.2
Cc1ccc(NS(=O)(=O)c2ccc(NC(=O)CSc3ccc(Cl)cc3)cc2)c(C)c1 | i
O=C(NCc1ccco1)c1ccccc1NS(=O)(=O)c1ccc(Br)s1 | i
Nc1nc(-c2ccccc2Br)cs1 | i
CCN1CCN(C(=O)Cn2c(=O)sc3ccccc32)CC1 | 1.8
Cc1[nH]nc2c1C(=O)CCC2 | i
NC(=O)c1ccc2c(c1)OCCO2 | 0.2
CCCC(C(=O)NCc1ccco1)N(C(=O)CNS(=O)(=O)c1ccccc1)c1ccccc1OC (stereo unspecified) | 0.5
COc1ccc(OC(=O)c2cccc([N+](=O)[O-])c2)c(C(=O)/C=C/c2cccs2)c1 | 0.1
CCOC(=O)N1CCC(NCCNC(=O)c2ccccc2)CC1 | i
O=[N+]([O-])/C=C/c1cn(Cc2ccccc2)c2ccccc12 | i
CSc1nnc(-c2cnccn2)n1C | 0.1
Cc1cc(C(=O)CSc2nnc3c(Cl)cc(Cl)cn23)c(C)n1C | 4.7
c1csc(-c2nc3ccccc3[nH]2)c1 | 0.9
O=C(CN1CCN(Cc2ccc3c(c2)OCO3)CC1)Nc1ccc2c(c1)OCCO2 | 0.1
CCS(=O)(=O)N1Cc2ccccc2CC1C(=O)NCC12CC3CC(CC(C3)C1)C2 (stereo unspecified) | 1.9
CCN(CC)CCN1C(=O)C(=O)/C(=C(/O)c2c(C)[nH]c(C(=O)OC)c2C)C1c1cccc(OC)c1 (stereo unspecified) | 0.0
CCOc1cc(N2CCOCC2)c(OCC)cc1NC(=O)COc1ncnc2ccc(Br)cc12 | i
COCc1cc(C)nc(NCCO)c1C#N | 0.1
C/C(Cn1nc([N+](=O)[O-])cc1C)=N\NC(=O)c1ccc(C(C)(C)C)cc1 | 1.1

# The list continues.
Compound | H5N1 antiviral
O=C1CC(NCCC2=CCCCC2)C(=O)N1c1cccc(Cl)c1Cl (stereo unspecified) | 0.3
O=C1OC2(CCCCC2)OC(=O)C1=CNc1nccs1 | i
Cc1nc(NC(=O)/C=C/c2ccccc2)sc1C(=O)Nc1ccccc1Cl | 0.1
CN(C)NC(=S)Nc1ccc(Cl)cc1 | i
Cc1cccc2cc(CN(Cc3nnnn3C3CCCCC3)C3CCCC3)c3nnnn3c12 | 0.7
COc1cc(/C=N/Nc2nn3cnnc3c3ccccc23)ccc1O | i
CC(=O)NC(C)c1nc2ccccc2n1C(C)C (stereo unspecified) | 0.1
CCOC(=O)C1=C(O)c2ccccc2C(=O)/C1=C\c1ccc(CC)cc1 | 0.2
CS(=O)(=O)C1=C(O)C(=O)N(c2ccccc2)C1c1ccccc1 (stereo unspecified) | 0.4
CCOc1ccc(NC(=O)c2ccc3nccnc3c2)cc1 | i
CCOC(=O)CN(C(=O)CSc1nnc(-c2ccncc2)n1CCCN(C)C)c1ccccc1 | i
CCn1c(CCNC(=O)c2ccc(Cl)cc2)nnc1SCC(=O)NC1CCCC1 | i
CCC(=O)c1ccc(OCC(O)Cn2cnc3ccccc32)cc1 (stereo unspecified) | i
COC(=O)c1ccccc1NC(NC(=O)c1ccco1)C(=O)c1ccc(C)cc1 (stereo unspecified) | i
CCNc1nc(NC(C)C)nc(Oc2ccc(OCCOc3ccccc3)nn2)n1 | i
CCOc1ccccc1C(=O)NC1CC2CCCC(C1)N2C1CC1 (stereo unspecified) | 0.2
CC(=O)c1cccc(N(C(=O)c2ccco2)C(C(=O)NC2CCCC2)c2ccncc2)c1 (stereo unspecified) | i
CC(C(=O)N1CCC2(CC1)OCCO2)C1Sc2ccccc2NC1=O (stereo unspecified) | i
Cc1sc2nc3ccc(NCc4ccco4)nn3c(=O)c2c1C | 4.0
Cc1ccc(C(=O)Nc2ncnc3sc4c(c23)CCCCC4)cc1 | 0.9

# Pulled by compound from the entries so far, 2 records:
Compound | H5N1 antiviral
Cc1cccc2cc(CN(Cc3nnnn3C3CCCCC3)C3CCCC3)c3nnnn3c12 | 0.7
CCOc1ccc(NC(=O)c2ccc3nccnc3c2)cc1 | i

# More records:
Compound | H5N1 antiviral
CC(C)Oc1ccc(C(CC(=O)NCc2ccco2)c2ccccc2)cc1 (stereo unspecified) | 0.3
COCCCNC(=O)c1oc2ccc(S(=O)(=O)N(C)C3CCCCC3)cc2c1C | 1.1
Cc1cccc(C(=O)Nc2ccc(CC(=O)O)cc2)c1 | i
O=C(NC(C(=O)N/N=C/c1c2ccccc2cc2ccccc12)c1n[nH]c(=O)c2ccccc12)c1ccccc1 (stereo unspecified) | i
CCn1cc(Br)c(C(=O)Nc2cccc(SC)c2)n1 | 1.1
CN1CC(=O)N(C)c2nc(Br)n(C)c2C1=O | i
O=c1oc2ccccc2c(Nc2ccc(O)cc2)c1[N+](=O)[O-] | i
CCOC(=O)c1[nH]c(=O)[nH]c1CSc1nc(C)cc(C)n1 | 1.5
CCOc1cc(/C=N/NC(N)=O)ccc1OC(=O)c1ccc(C)cc1 | 0.9
Cc1ccc(S(=O)(=O)N/N=C\c2ccc(Cl)c([N+](=O)[O-])c2)cc1 | i
O=C(O)c1cc(-c2ccccc2)n(-c2ccccc2C(=O)O)n1 | i
COc1ccc(OC)c(NS(=O)(=O)c2ccc(SC)cc2)c1 | i
CC(C)(C)n1nnnc1CN1C2CCC1CC(NC(=O)Nc1ccccc1)C2 (stereo unspecified) | 0.8
CCOc1ccc(CN2CCN(c3cc(C)nc4c5c(C)cc(C)nc5nn34)CC2)cc1 | 1.0
COc1ccc(-c2nc(CSCC(=O)N3CCN(c4cccc(C)c4)C(C)C3)c(C)o2)cc1OC (stereo unspecified) | 2.8
CCCCCCCCCCCC(=O)N/N=C/c1ccco1 | i
CN(C)C=C1C(=O)N(C2CCCCC2)C(=O)N(C2CCCCC2)C1=O | 0.7
CCc1ccc(C2C3=C(CC(C)(C)CC3=O)Nc3c2c(=O)[nH]c2nc(C)nn32)cc1 (stereo unspecified) | i
CCc1c(C)c2ccc(OCC(N)=O)cc2oc1=O | 0.1
CCOc1ccc(N(C(C)C(=O)Nc2ccc(OC)cc2)S(C)(=O)=O)cc1 (stereo unspecified) | i

# Overlap with the part before: two compounds, then new ones.
Compound | H5N1 antiviral
CCc1c(C)c2ccc(OCC(N)=O)cc2oc1=O | 0.1
CCOc1ccc(N(C(C)C(=O)Nc2ccc(OC)cc2)S(C)(=O)=O)cc1 (stereo unspecified) | i
COC(=O)c1c(C)[nH]c(C)c1-c1ccccc1Cl | 1.1
CCCn1c(SCC(=O)Nc2c(CC)cccc2CC)nnc1C(C)C | 0.1
CCCCc1ccc(Nc2nc(CCC)cc(=O)[nH]2)cc1 | i
COc1ccc(-c2nc(N3CCCC3)[nH]c(=O)c2C#N)cc1 | 1.6
COc1ccc(Oc2coc3cc(OC(=O)c4cccs4)ccc3c2=O)cc1 | i
CCOC(=O)Cc1csc(NS(C)(=O)=O)n1 | i
CC(C)c1ccc(NC(=O)NC2CCN(CC(=O)Nc3cccc4ccccc34)CC2)cc1 | i
COc1ccc2nc3oc(C(=O)N4CCN(c5cccc(Cl)c5)CC4)cc3cc2c1 | i
Cc1ccc(S(=O)(=O)N(CCO)Cc2cc3ccc(C)c(C)c3[nH]c2=O)cc1 | 0.6
Nc1nonc1-c1noc(CCCN2C(=O)c3ccccc3C2=O)n1 | i
COc1ccc(Br)cc1C1SCCN1S(C)(=O)=O (stereo unspecified) | i
O=C(/C=C/Nc1ccccc1OC(F)(F)F)C(F)(F)F | i
CCOn1c(=O)c(-c2cc3ccccc3o2)[n+]([O-])c2ccccc21 | 0.2
CC1CCN(C(=S)NCCc2ccccc2)CC1 | 0.3
CCOc1ccc(S(=O)(=O)N(C)C)cc1-c1nc2c(C(C)(C)C)nn(C)c2c(=O)[nH]1 | i
Cc1nc(N2CCN(Cc3ccc4c(c3)OCO4)CC2)nc2c1C(=O)CC(c1ccco1)C2 (stereo unspecified) | 0.6
CC(C)Sc1nc2c(c(=O)n1C)SC(C)C2 (stereo unspecified) | 2.1
CCN1C(=O)c2ccccc2S(=O)c2ccc(C(=O)N3CCCC3)cc21 (stereo unspecified) | 0.2
COCC(C)OC(=O)c1c(N)n(Cc2ccco2)c2nc3ccccc3nc12 (stereo unspecified) | 0.2
COc1cc(C)c(C(C)C)cc1S(=O)(=O)N1CCOCC1 | i

# (next part)
Compound | H5N1 antiviral
COCCCNC(=O)CCCn1c(=O)c2ccccc2n(CC(=O)Nc2c(C)cccc2C)c1=O | 0.9
COc1ccccc1N1C(=O)C2CC(C)=C(C)CC2C1=O (stereo unspecified) | 0.7
Cn1c(-n2c(CCCN3C(=O)c4ccccc4C3=O)nc3ccccc3c2=O)nc2ccccc21 | i
CC(=O)NC1(c2cccc(F)c2)CCN(CC(=O)NC2CCCCC2)CC1 | 0.2
COC(=O)CC1(c2ccccc2)C(=O)c2ccccc2C1=O | i
Cn1cccc1CNC(=O)Nc1ccccc1 | 1.1
O=C(Cc1ccccc1)N1CCN(C/C=C/c2ccccc2)CC1 | i
CCOc1ccccc1NC(=O)C1CCCN1C(=O)OCc1ccccc1 (stereo unspecified) | 2.3
Cc1cc(NC(=O)C2CC=CCC2C(=O)O)no1 (stereo unspecified) | i
COc1ccc(-c2nc(C)sc2CC(=O)O)cc1 | 0.1
CCOC(=O)C1=C(C)N(Cc2ccccc2)C(=O)NC1c1ccc(OC)cc1 (stereo unspecified) | 0.4
O=C(CCS(=O)(=O)c1ccc(Br)cc1)N1CCN(c2ccccc2F)CC1 | 0.1
CC12CCC(C(=O)NCc3ccc4c(c3)OCO4)(CC1=O)C2(C)C (stereo unspecified) | 0.9

# Looked up above:
# COCCCNC(=O)CCCn1c(=O)c2ccccc2n(CC(=O)Nc2c(C)cccc2C)c1=O in H5N1 antiviral is listed with 0.9
# CCOc1ccccc1NC(=O)C1CCCN1C(=O)OCc1ccccc1 (stereo unspecified) in H5N1 antiviral is listed with 2.3

# Source: PubChem BioAssay (SRMLSC)
